DUX4 inh: inhibitors of DUX4-driven ZSCAN4 reporter expression, primary screen, 293T cells, Gaussia and Italica luciferase; 293T-iDUX4 ZSCAN4-Gaussia luciferase reporter, 24 h; active compounds read low; activity change, negative = inhibition, % (test concentration not listed); actives 0.8% (n = 37,000);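 active means -10% or lower and over 25 points stronger than a control reporter; inconclusive means -10% or lower with a smaller gap; inactive means above -10%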;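 further: 0% = median of neutral control wells and -100% = median of positive control wells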
DUX4 inh difference: also measured in DUX4 inh; calls as there; Gaussia minus Italica difference, %; measured here: selective DUX4 reporter inhibition;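 worked out from the two reporters; negative = selective loss of the DUX4 reporter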
DUX4 inh control: second read-out of DUX4 inh, no call of its own (marks repeat the call); activity change, negative = inhibition, %; measured here: Italica tet-on control reporter;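 0 = neutral control and -100 = positive control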
An asterisk follows results filed as active; & = joins results of further samples. An excerpt; rates above refer to the full screens.

Results for C[C@@H]1CCCCO[C@@H](CN(C)C(=O)Nc2ccc3c(c2)OCO3)[C@H](C)CN([C@@H](C)CO)C(=O)c2cc(NC(=O)C3CCCCC3)ccc2O1 ?
DUX4 inh: 3; DUX4 inh difference: 4; DUX4 inh control: -0.4

Results for CCCC(=O)N1CC2(CN(C(C)=O)C2)c2c(n(C)c3cc(OC)ccc23)[C@@H]1CO ?
DUX4 inh: 7; DUX4 inh difference: 9; DUX4 inh control: -2.2

How did Cc1cccc(-c2ccc([C@@H]3[C@@H](CO)N4CCCCN(S(=O)(=O)c5cccs5)C[C@H]34)cc2)c1 do in these assays?
DUX4 inh: inconclusive

How did C/C=C/c1ccccc1[C@H]1[C@@H](C#N)N(c2nc(CC)cs2)[C@@H]1CO do in these assays?
DUX4 inh: inconclusive

How did COCC(=O)N1CC(=O)N2[C@H](C1)[C@H](c1ccc(-c3ccccc3)cc1)[C@@H]2CO do in these assays?
DUX4 inh: 13; DUX4 inh difference: 1; DUX4 inh control: 12

Results for O=C(CC1CC1)Nc1ccc2c(c1)[C@@H]1C[C@@H](CC(=O)NC3CCCCC3)O[C@H](CO)[C@@H]1O2 ?
DUX4 inh: 5; DUX4 inh difference: 0; DUX4 inh control: 5.4

What do the screens show for `C[C@@H]1CN([C@@H](C)CO)C(=O)c2cc(NC(=O)c3ccncc3)ccc2O[C@H]1CN(C)Cc1ccc(Oc2ccccc2)cc1`?
DUX4 inh: 0; DUX4 inh difference: -1; DUX4 inh control: 0.9

Results for C[C@@H]1CN([C@@H](C)CO)C(=O)c2cc(C#Cc3ccncc3)cnc2O[C@@H]1CN(C)S(=O)(=O)c1ccccc1F ?
DUX4 inh: -2; DUX4 inh difference: -3; DUX4 inh control: 0.6

How did COc1ccccc1NC(=O)N1C[C@H](O)COC[C@H]2O[C@@H](CC(=O)N3CCC(Cc4ccccc4)CC3)CC[C@@H]21 do in these assays?
DUX4 inh: -1; DUX4 inh difference: -5; DUX4 inh control: 3.4

How did COc1ccc(-c2ccc([C@H]3[C@@H](CO)N4C(=O)CN(C(=O)c5ccccn5)C[C@@H]34)cc2)cc1 do in these assays?
DUX4 inh: 3; DUX4 inh difference: -7; DUX4 inh control: 9.6

What do the screens show for `Cc1ccccc1-c1ccc([C@H]2[C@@H](CO)N3C(=O)CN(C(=O)c4ccncc4)C[C@H]23)cc1`?
DUX4 inh: -2; DUX4 inh difference: 1; DUX4 inh control: -2.8

How did C[C@H]1CN([C@@H](C)CO)C(=O)c2cc(NS(=O)(=O)c3cn(C)cn3)ccc2O[C@H]1CN(C)C(=O)Nc1cccc2ccccc12 do in these assays?
DUX4 inh: -3; DUX4 inh difference: 0; DUX4 inh control: -3.6

What do the screens show for `CC=Cc1ccc2n(c1=O)C[C@@H]1[C@@H](CO)[C@H](C(=O)NCCN3CCCC3)N(C(=O)NC(C)C)[C@H]21` (mixture of isomers)?
DUX4 inh: 10; DUX4 inh difference: 9; DUX4 inh control: 1.5

How did N#Cc1cccc(-c2ccc([C@H]3[C@@H](CO)N[C@@H]3CNC(=O)C3CC3)cc2)c1 do in these assays?
DUX4 inh: -8; DUX4 inh difference: -7; DUX4 inh control: -0.7

How did CC(C)C(=O)Nc1ccc2c(c1)C(=O)N(C)[C@H]1CC[C@H](CC(=O)NCC3CC3)O[C@@H]1CO2 do in these assays?
DUX4 inh: 0; DUX4 inh difference: -1; DUX4 inh control: 0.3

Results for C/C=C/c1ccc([C@H]2[C@@H](CNC(=O)c3ccccn3)N(C(=O)CC)[C@H]2CO)cc1 ?
DUX4 inh: -3; DUX4 inh difference: -8; DUX4 inh control: 5.3

How did COc1cccc(C#Cc2ccc([C@H]3[C@H]4CN(C(=O)Cc5ccccc5)CC(=O)N4[C@H]3CO)cc2)c1 do in these assays?
DUX4 inh: inconclusive

How did O=C(C[C@H]1C=C[C@@H](NC(=O)Cc2ccccn2)[C@@H](CO)O1)NCCc1ccncc1 do in these assays?
DUX4 inh: 4; DUX4 inh difference: 7; DUX4 inh control: -3.6

What do the screens show for `CCCC#Cc1ccc([C@@H]2[C@H]3CN(C(=O)CN4CCOCC4)CC(=O)N3[C@H]2CO)cc1`?
DUX4 inh: 10; DUX4 inh difference: 5; DUX4 inh control: 5.3

How did COCC#Cc1ccc2c(c1)O[C@@H](CN(C)Cc1ccccc1F)[C@@H](C)CN([C@H](C)CO)S2(=O)=O do in these assays?
DUX4 inh: 3; DUX4 inh difference: -1; DUX4 inh control: 4.4

What do the screens show for `O=C(C[C@@H]1C[C@@H]2c3cc(NC(=O)CC4CC4)ccc3O[C@@H]2[C@H](CO)O1)NCC1CC1`?
DUX4 inh: 6; DUX4 inh difference: 4; DUX4 inh control: 1.8

How did COC(=O)N(C)C[C@@H]1OCc2ccccc2-c2c(n(C)c3ccccc23)C(=O)N([C@H](C)CO)C[C@H]1C do in these assays?
DUX4 inh: 30; DUX4 inh difference: 25; DUX4 inh control: 4.9

What do the screens show for `Cc1ccc(-c2ccc(C3[C@H]4CNC[C@@H]3N4Cc3nccs3)cc2)cc1` (stereo partly specified)?
DUX4 inh: 12; DUX4 inh difference: -4; DUX4 inh control: 16

Results for COCC#Cc1cnc2c(c1)C(=O)N([C@H](C)CO)C[C@@H](C)[C@H](CN(C)Cc1ccc(-c3ccccc3)cc1)O2 ?
DUX4 inh: 2; DUX4 inh difference: 2; DUX4 inh control: -0.5

How did C[C@H]1CN([C@@H](C)CO)C(=O)c2cc(N(C)C)ccc2O[C@@H]1CN(C)CC1CCCCC1 do in these assays?
DUX4 inh: -2; DUX4 inh difference: -4; DUX4 inh control: 2.2

Results for CC(C)NC(=O)Nc1ccc2c(c1)C(=O)N([C@@H](C)CO)C[C@@H](C)[C@@H](CN(C)C(=O)C1CCCCC1)OCCCC[C@H](C)O2 ?
DUX4 inh: 2; DUX4 inh difference: -2; DUX4 inh control: 4.1

Results for CC(C)[C@H](C)NC(=O)N(C)C[C@@H]1OCc2ccccc2-c2c(n(C)c3ccccc23)C(=O)N([C@H](C)CO)C[C@H]1C ?
DUX4 inh: 8; DUX4 inh difference: 7; DUX4 inh control: 1.1

How did CO[C@H]1CC[C@@H]2CCOc3ccc(C#N)cc3C(=O)N(C)[C@H](C)C(=O)N(C)C[C@@H]1O2 do in these assays?
DUX4 inh: 0; DUX4 inh difference: -3; DUX4 inh control: 2.7

Results for COc1ccccc1NC(=O)N1C[C@H](O)COC[C@H]2O[C@@H](CC(=O)NCCc3ccncc3)CC[C@@H]21 ?
DUX4 inh: 4; DUX4 inh difference: -3; DUX4 inh control: 6.5

What do the screens show for `C[C@H](O)C#Cc1ccc([C@H]2[C@H]3CN(C(=O)Nc4ccccc4)CCCCN3[C@H]2CO)cc1`?
DUX4 inh: inconclusive

Results for O=C(NCc1ccccc1F)[C@H]1[C@H](CO)[C@H]2Cn3c(cccc3=O)[C@H]2N1CC1CC1 ?
DUX4 inh: 11; DUX4 inh difference: 24; DUX4 inh control: -12

Results for CO[C@H]1CN(C)C(=O)c2ccc(NC(C)=O)cc2OC[C@@H](C)N(Cc2cccc(F)c2)C[C@@H]1C ?
DUX4 inh: 4; DUX4 inh difference: -4; DUX4 inh control: 7.2

How did CN(C)C(=O)c1ccc(-c2ccccc2[C@H]2[C@@H](C#N)N(C(=O)C3CCCCC3)[C@H]2CO)cc1 do in these assays?
DUX4 inh: 1; DUX4 inh difference: 10; DUX4 inh control: -9.3

What do the screens show for `CCC(=O)N1CC2(C1)[C@H](c1ccc(-c3ccc(C)cc3)cc1)[C@H](CO)N2S(C)(=O)=O`?
DUX4 inh: 3; DUX4 inh difference: 1; DUX4 inh control: 2.1

How did CO[C@H]1CN(C)C(=O)c2cc(NC(=O)C3CC3)ccc2OC[C@@H](C)N(C(=O)CN2CCOCC2)C[C@@H]1C do in these assays?
DUX4 inh: 3; DUX4 inh difference: 1; DUX4 inh control: 2.4

Results for CN1[C@H](C(=O)N2CCc3ccccc3C2)[C@@H](CO)[C@@H]2Cn3c(ccc(-c4ccncc4)c3=O)[C@@H]21 ?
DUX4 inh: 3; DUX4 inh difference: 4; DUX4 inh control: -1.6

What do the screens show for `COc1ccc(NC(=O)N2CC(=O)N3[C@@H](CO)[C@H](c4ccc(/C=C/c5ccccc5)cc4)[C@@H]3C2)cc1`?
DUX4 inh: -1; DUX4 inh difference: 1; DUX4 inh control: -1.4

How did C[C@@H]1CN([C@@H](C)CO)C(=O)CCCn2nncc2CO[C@@H]1CN(C)C(=O)c1ccc2ccn(C)c2c1 do in these assays?
DUX4 inh: 4; DUX4 inh difference: 0; DUX4 inh control: 3.2

What do the screens show for `CC(C)(O)C#Cc1cccc(-c2nc(C(=O)NCCCN3CCOCC3)cc3c2[C@@H](CCO)N(S(=O)C(C)(C)C)C3)c1` (stereo partly specified)?
DUX4 inh: -1; DUX4 inh difference: 5; DUX4 inh control: -6.2

What do the screens show for `COc1cccc(NC(=O)N2CC(=O)N3[C@@H](CO)[C@H](c4ccc(C5=CCCCC5)cc4)[C@@H]3C2)c1`?
DUX4 inh: -10; DUX4 inh difference: -9; DUX4 inh control: -1.0

The closing three entries of the section above open the next one:
How did C[C@@H]1CN([C@@H](C)CO)C(=O)CCCn2nncc2CO[C@@H]1CN(C)C(=O)c1ccc2ccn(C)c2c1 do in these assays?
DUX4 inh: 4; DUX4 inh difference: 0; DUX4 inh control: 3.2

What do the screens show for `CC(C)(O)C#Cc1cccc(-c2nc(C(=O)NCCCN3CCOCC3)cc3c2[C@@H](CCO)N(S(=O)C(C)(C)C)C3)c1` (stereo partly specified)?
DUX4 inh: -1; DUX4 inh difference: 5; DUX4 inh control: -6.2

What do the screens show for `COc1cccc(NC(=O)N2CC(=O)N3[C@@H](CO)[C@H](c4ccc(C5=CCCCC5)cc4)[C@@H]3C2)c1`?
DUX4 inh: -10; DUX4 inh difference: -9; DUX4 inh control: -1.0

What do the screens show for `Cn1cnc(S(=O)(=O)N2[C@@H]3CNC[C@H]2C3c2ccc(-c3ccccc3F)cc2)c1` (stereo partly specified)?
DUX4 inh: 6&23; DUX4 inh difference: -11&17; DUX4 inh control: 17&5.9

Results for C[C@@H]1CCCCO[C@@H](CN(C)C(=O)Nc2ccc3c(c2)OCO3)[C@@H](C)CN([C@H](C)CO)C(=O)c2cc(NC(=O)Nc3ccc(C(F)(F)F)cc3)ccc2O1 ?
DUX4 inh: -2; DUX4 inh difference: 0; DUX4 inh control: -1.3

How did CN(C)c1ccc2c(c1)[C@H]1C[C@H](CC(=O)NCc3ccncc3)O[C@H](CO)[C@H]1O2 do in these assays?
DUX4 inh: 6; DUX4 inh difference: 1; DUX4 inh control: 5.1

Results for COCCNC(=O)C[C@H]1C[C@H]2c3cc(NC(=O)C4CCC4)ccc3O[C@H]2[C@@H](CO)O1 ?
DUX4 inh: 5; DUX4 inh difference: 2; DUX4 inh control: 2.7

How did CN1C(=O)c2cc(NC(=O)Cc3cccs3)ccc2OC[C@H]2O[C@H](CC(=O)NCCCN3CCOCC3)CC[C@H]21 do in these assays?
DUX4 inh: -5; DUX4 inh difference: -1; DUX4 inh control: -3.3

What do the screens show for `CCCNC(=O)N1[C@H](CO)[C@@H](c2ccccc2C2=CCCCC2)[C@@H]1C#N`?
DUX4 inh: inconclusive

How did CC(=O)N1CC2(C1)[C@@H](c1ccc(-c3ccccc3C)cc1)[C@@H](CO)N2C(=O)CC1CC1 do in these assays?
DUX4 inh: 2; DUX4 inh difference: 3; DUX4 inh control: -1.4

How did COc1cccc(C#Cc2ccc3c(c2)[C@H]2[C@H](CCN2S(=O)(=O)c2ccc(C)cc2)[C@H](CO)N3)c1 do in these assays?
DUX4 inh: 12; DUX4 inh difference: 1; DUX4 inh control: 11

What do the screens show for `O=C(O)C[C@H]1C[C@@H]2c3cc(NC(=O)Nc4ccc(C(F)(F)F)cc4)ccc3O[C@@H]2[C@@H](CO)O1`?
DUX4 inh: 7; DUX4 inh difference: 5; DUX4 inh control: 2.1

What do the screens show for `O=C(NC1CCCC1)N[C@@H]1C=C[C@@H](CC(=O)N2CCOCC2)O[C@H]1CO`?
DUX4 inh: 1; DUX4 inh difference: -3; DUX4 inh control: 4.2

Results for CCCC(=O)Nc1ccc2c(c1)OC[C@H](C)N(CCc1ccccc1)C[C@H](C)[C@@H](OC)CN(C)C2=O ?
DUX4 inh: -7; DUX4 inh difference: -9; DUX4 inh control: 1.5

How did COc1ccccc1-c1ccc2n(c1=O)C[C@H]1[C@H](CO)[C@@H](C(=O)N[C@H](C)c3ccccc3)[C@@H]2N1C do in these assays?
DUX4 inh: -5; DUX4 inh difference: -2; DUX4 inh control: -3.0

Structural class: the compounds so far containing a cyano group (5)
How did C/C=C/c1ccccc1[C@H]1[C@@H](C#N)N(c2nc(CC)cs2)[C@@H]1CO do in these assays?
DUX4 inh: inconclusive

How did N#Cc1cccc(-c2ccc([C@H]3[C@@H](CO)N[C@@H]3CNC(=O)C3CC3)cc2)c1 do in these assays?
DUX4 inh: -8; DUX4 inh difference: -7; DUX4 inh control: -0.7

How did CO[C@H]1CC[C@@H]2CCOc3ccc(C#N)cc3C(=O)N(C)[C@H](C)C(=O)N(C)C[C@@H]1O2 do in these assays?
DUX4 inh: 0; DUX4 inh difference: -3; DUX4 inh control: 2.7

How did CN(C)C(=O)c1ccc(-c2ccccc2[C@H]2[C@@H](C#N)N(C(=O)C3CCCCC3)[C@H]2CO)cc1 do in these assays?
DUX4 inh: 1; DUX4 inh difference: 10; DUX4 inh control: -9.3

What do the screens show for `CCCNC(=O)N1[C@H](CO)[C@@H](c2ccccc2C2=CCCCC2)[C@@H]1C#N`?
DUX4 inh: inconclusive

Bioassay records: PubChem, Broad Institute
